# N370S GC mod – inhibits or activates N370S mutant glucocerebrosidase; AID 2101; N370S GC spleen homogenate, 4MU-glucoside fluorescence; P04062; Potency, µM (series often up to 59.4 µM), for inactives: at the highest dose activity change, negative = inhibition, most hits filed as inhibitors; 330,000 compounds, 0.092% hits;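 also: 0% = full enzyme activity and -100% = no enzyme basal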
# GCN5L2 inh – GCN5L2 (KAT2A) acetyltransferase inhibition; Q92830; GCN5L2 HAT assay, ThioGlo1 CoA-SH fluorescence; Potency, µM (top dose mostly 58.9 µM), for the others: at the highest dose activity change, negative = inhibition, hits mostly inhibitors; 390,000 compounds, 0.21% hits; AID 504327
# Target sequence (Q92830 whole entry, looked up): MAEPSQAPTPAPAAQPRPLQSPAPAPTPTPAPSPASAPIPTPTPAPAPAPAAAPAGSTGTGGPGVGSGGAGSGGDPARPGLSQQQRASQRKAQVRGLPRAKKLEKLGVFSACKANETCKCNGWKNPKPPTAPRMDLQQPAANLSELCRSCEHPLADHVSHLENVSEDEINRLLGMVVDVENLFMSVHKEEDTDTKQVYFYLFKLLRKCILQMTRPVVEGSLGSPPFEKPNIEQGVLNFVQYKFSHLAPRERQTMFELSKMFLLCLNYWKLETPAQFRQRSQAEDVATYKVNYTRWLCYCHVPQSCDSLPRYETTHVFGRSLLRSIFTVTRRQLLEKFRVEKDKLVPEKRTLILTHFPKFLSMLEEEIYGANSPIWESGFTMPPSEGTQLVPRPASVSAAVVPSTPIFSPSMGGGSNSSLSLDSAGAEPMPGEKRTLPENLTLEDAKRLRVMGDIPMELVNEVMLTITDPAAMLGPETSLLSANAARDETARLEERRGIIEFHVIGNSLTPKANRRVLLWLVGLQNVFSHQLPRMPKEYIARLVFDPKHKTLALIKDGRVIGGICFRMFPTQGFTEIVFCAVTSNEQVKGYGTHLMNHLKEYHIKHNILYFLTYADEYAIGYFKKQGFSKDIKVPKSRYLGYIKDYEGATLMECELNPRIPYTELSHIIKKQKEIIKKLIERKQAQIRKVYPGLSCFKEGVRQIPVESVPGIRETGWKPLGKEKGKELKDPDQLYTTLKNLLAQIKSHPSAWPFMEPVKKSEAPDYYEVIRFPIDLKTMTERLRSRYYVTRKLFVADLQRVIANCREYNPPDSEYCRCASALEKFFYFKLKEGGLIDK
#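 Titration-based screen in which CoA formation is detected via maleimide probe ThioGlo1 (50uM) turning fluorescent on thiol reaction; substrates H3(1-25) 75uM and acetyl-CoA 70uM, GCN5L2 20nM, 20 min incubation at room temperature.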
# Numbers without * were called inactive; ? = inconclusive; . = not tested or not shown; & = joins results of further samples; [ ] = another dose, or the depositor's remark. Calls follow the shape of the dose curve; as a rule, active = well fitted curve in the direction sought with a large enough effect; inconclusive = small, poorly fitted or top-dose-only effect, or another doubt; inactive = no such curve, though single readings can be large; an effect the other way counts as inactive or inconclusive. Unless noted, % is scaled to controls: 0 for no effect and ±100 for the full control effect; potency is read from the fitted curve at half-maximal effect. A portion of the library; most or all hits stand in other tables.
SMILES,N370S GC mod,GCN5L2 inh
COc1ccc(CCN(C)C(=O)C2CCCN(Cc3ccc(OC)c(OC)c3)C2)cc1OC (stereo not given),-15%&6%,-7%&-6%
CCOc1ccc(NC(=O)Cn2nc(-c3ccccc3Cl)n(CC)c2=S)cc1,2%,3%
Cc1ccc(SCC(=O)OCC(=O)NC2CCCCCC2)cc1,7%,-19%
Cc1cccc(C)c1NC(=O)c1c(-c2ccccc2)noc1C,-18%,-3%
O=C(OC(C(=O)NCc1ccc2c(c1)OCO2)c1ccc(Cl)cc1)c1ccco1 (stereo not given),-6%,-8%
Cc1ccc(Nc2nnc(SCc3cc(=O)n4cc(C)ccc4n3)s2)cc1,-5%,-2%
O=C(CC(NCc1cccnc1)C(=O)O)Nc1ccc(F)cc1 (stereo not given),.,-4%
Cc1ccc(S(C)(=O)=O)cc1C(=O)Nc1ccc(S(=O)(=O)Nc2nccs2)cc1,.,0%
CC1=C(C(=O)Nc2ccccn2)C(c2ccc(N(C)C)cc2)n2ncnc2N1 (stereo not given),-28%,-3%
O=C(CNC(=O)c1ccc(S(=O)(=O)N2CCCC2)cc1)N/N=C/c1ccc(Cl)cc1Cl,3%,-9%
CN(C)CCSc1nc(-c2ccccc2)nc2c1COC(C)(C)C2,-10%,0%
Cc1onc(C(=O)N2CCC(C(N)=O)CC2)c1-c1ccccc1Cl,-16%,2%
Cc1ccc(C(=O)NCCCn2ccnc2)o1,-5%,-4%
Nc1ccc(Oc2cccc(Oc3ccc(N)cc3)c2)cc1,-12%,-8%
CC12C(=O)OC(=O)C1(C)C1CCC2O1 (stereo not given),3%&4%&18%,-27%
CN(CC(=O)Nc1ccccc1Br)C(=O)c1cc(S(=O)(=O)N(C)C)ccc1N1CCCC1,2%,-2%
O=C(O)c1ccc(NC(CSCc2ccccc2F)C(=O)O)c([N+](=O)[O-])c1 (stereo not given),-9%,-1%
BrC(=C\c1ccccc1)/C=N/n1cnnc1,-16%,-2%
O=C(NNC(=O)c1ccccc1OCc1ccc(F)cc1)c1ccccc1O,-1%,-14%
Cc1ccc(S(=O)(=O)N2CCN(C(=O)C3CCN(C(=O)c4ccc(F)cc4)CC3)CC2)c(C)c1,9%,?
O=C(CNC(=O)c1ccc2c(c1)OCO2)Nc1cccc(Br)c1,.,-18%
Cc1ccc(S(=O)(=O)NCCC(=O)NC2CCCCC2)cc1,.,1%
Clc1ccc(SCCCCN2CCOCC2)cc1,3%,0%
Cc1cnc(NC(=O)C2C(=O)c3ccccc3S(=O)(=O)N2C)s1 (stereo not given),-5%,-11%&-7%
CCC1(c2ccccc2)NC(=O)N(CC(=O)NNC(=O)c2ccc(F)cc2)C1=O (stereo not given),-2%,0%
COc1ccccc1C(=O)NC(CCSC)C(=O)N1CCN(C(C)=O)CC1 (stereo not given),.,-4%
CCSCCOC(=O)C1=C(C)NC(=O)NC1c1ccccc1 (stereo not given),-5%,0%
COC(CNS(=O)(=O)c1cc2c3c(c1)CCN3C(=O)CC2)OC,3%,-5%
Cc1cc(C)cc(NC(=O)c2cc(S(=O)(=O)N3CCC(C)CC3)cn2C)c1,.,-3%
O=C(CCc1nnc(CCC2CCCCC2)o1)NCc1ccon1,-8%,1%
C=CCN1CCN(C(=O)c2cc3c(s2)CCC(CC)C3)CC1 (stereo not given),-2%,-3%
O=C(NNc1nc(-c2ccc(Br)cc2)cs1)c1ccco1,10%,-8%
O=C(O)CCCCCNC(=O)Cn1nnc2ccccc2c1=O,3%,-4%
O=C(Nc1nncs1)c1cccnc1Cl,21%,-5%
CC(C)COc1cc(=O)[nH]c(SCC(C)C)n1,?,.
O=C(NC(=S)Nc1ccc2c(c1)OCCO2)c1ccccc1F,-17%,-4%

# Fetched by structure from the list above, 6 records:
SMILES,N370S GC mod,GCN5L2 inh
Cc1cnc(NC(=O)C2C(=O)c3ccccc3S(=O)(=O)N2C)s1 (stereo not given),-5%,-11%&-7%
O=C(NNC(=O)c1ccccc1OCc1ccc(F)cc1)c1ccccc1O,-1%,-14%
O=C(CCc1nnc(CCC2CCCCC2)o1)NCc1ccon1,-8%,1%
O=C(OC(C(=O)NCc1ccc2c(c1)OCO2)c1ccc(Cl)cc1)c1ccco1 (stereo not given),-6%,-8%
CC(C)COc1cc(=O)[nH]c(SCC(C)C)n1,?,.
O=C(O)c1ccc(NC(CSCc2ccccc2F)C(=O)O)c([N+](=O)[O-])c1 (stereo not given),-9%,-1%

# Returning to the listing, repeating the 2 entries before the break.
SMILES,N370S GC mod,GCN5L2 inh
CC(C)COc1cc(=O)[nH]c(SCC(C)C)n1,?,.
O=C(NC(=S)Nc1ccc2c(c1)OCCO2)c1ccccc1F,-17%,-4%
Nc1nc(COc2ccc(F)cc2Cl)nc(N2CCCCC2)n1,-1%,-4%
CCOC(=O)c1cc(-c2cccc(C(F)(F)F)c2)nc2nc(SC)[nH]c(=O)c12,-3%,-8%
O=C(CSc1nnc(Cc2ccc(Cl)cc2)o1)Nc1ccccc1,-3%,-6%
CN(C)S(=O)(=O)N1CCN(c2ccnc3cc(Cl)ccc23)CC1,-4%,-10%
Cc1ccc(NC(=O)CN2CCCC2)c2c1CC(C)(C)O2,-2%,-15%
CCC1S/C(=C(\C#N)C(=O)NCc2ccco2)N(c2ccc(F)cc2)C1=O (stereo not given),-13%,-4%
CC(=O)Nc1ccc(NC(=O)C(C)Oc2ccc(C)nc2[N+](=O)[O-])cc1 (stereo not given),.,-15%
CCOC(=O)COc1ccc(N)cc1CC(NC(C)=O)(C(=O)OCC)C(=O)OCC,-1%,0%
COc1cc(OC)cc(C(=O)N[C@H](C(=O)Nc2nnc(C3CC3)s2)C(C)C)c1,25%,-4%
Cc1cccc(OCC(=O)Nc2ccc3c(c2)nc(CCN2CCN(c4ccccn4)CC2)n3C)c1,0%,-9%
Cn1cccc1C(=O)NC(=O)COC(=O)c1ccccc1Sc1ccccc1C#N,-3%,0%
CCOc1ccc(NS(=O)(=O)c2ccc(OCC)c3ncccc23)cc1,-3%,4%
COc1cc(CNC(=O)c2ccc(Cn3nc(C)c(Cl)c3C)o2)cc(OC)c1,-2%,-2%
COC(=O)c1c(-n2c(C)cc(C=O)c2C)sc2c1CCCC2,2%,-16%
O=C(CCN1C(=O)/C(=C\C=C\c2ccccc2)SC1=S)Nc1ccccc1C(=O)O,-6%,1%
COc1ccc(CCC(=O)Nc2cc(Cl)ccc2N2CCN(C)CC2)cc1,-21%,-4%
CCC(C(=O)NC(C)(C)C)N(Cc1ccccc1Cl)C(=O)c1snc(C(N)=O)c1N (stereo not given),-4%,-5%
CC(C)CCOc1ccccc1C(N)=O,-5%,2%
O=C(CCc1nnc(CCCc2ccccc2)o1)NC(C1CC1)C1CC1,3%,0%
COc1ccc(S(=O)(=O)N2CCN(C(=O)Nc3ccccc3OC)CC2)cc1,-14%,-1%
CN(C)CCCn1c(SCC(=O)Nc2nccs2)nnc1-c1ccncc1,-1%,-2%
Cc1ccccc1NC(=O)C1CCCN1S(=O)(=O)c1ccc2c(c1)n(C)c(=O)c(=O)n2C (stereo not given),1%,0%
COc1cccc(NC2=C(Cl)C(=O)OC2OC(=O)c2ccco2)c1 (stereo not given),-5%,-8%
CCC1(C)COC2(OC1)C(=O)Nc1ccccc12 (stereo not given),2%,2%
Cc1csc(N/N=C/c2ccc([N+](=O)[O-])cc2)n1,-10%,-13%
C/C(=N\NC(N)=S)c1ccc(Cl)s1,9%,-6%
COc1ccc(CNC(=O)c2cn(-c3cccc(OC)c3)c(=O)c3ccccc23)cc1,.,-3%
NC(=S)N/N=C/c1ccccc1OC(=O)c1cc2ccccc2oc1=O,16%,-2%
COc1ccc(CNC(=O)CCCn2c(SCC(N)=O)nc3cc4c(cc3c2=O)OCO4)cc1,.,1%
CSc1ccc(NC(=O)NCCCN2CCN(c3ccccc3F)CC2)cc1,-13%,-6%
Cn1c(SCC(=O)Nc2cccc(F)c2)nnc1-c1cc2ccccc2o1,-1%,-10%
Cn1c(N)c(C(=O)COC(=O)/C=C/c2ccccc2F)c(=O)n(C)c1=O,.,-7%
CC1CCCN(C(=O)c2ccc3nc[nH]c3c2)C1 (stereo not given),-3%,-5%
O=C1CC(c2ccccc2)CC2=C1CN(C1CCCCC1)CN2 (stereo not given),-4%,-7%
COc1ccc(CCNC(=O)c2cnc3sc(N4CCCCCC4)nn3c2=O)cc1OC,.,-1%
Cc1cnc(C(=O)Nc2ccc(F)c(F)c2)cn1,-5%,-27%
Cn1cccc1/C=N/N1CCN(Cc2ccccc2Cl)CC1,-4%,-4%
CN(C)c1cccc(C(=O)OCC(=O)N(Cc2ccccc2)C2CCS(=O)(=O)C2)c1 (stereo not given),6%,1%
O=C(Nc1ccc(O)c(C(=O)O)c1)c1cccc(NC(=O)c2ccco2)c1,-3%,-7%
Cc1cc(C)cc(C(=O)Nc2ccc(NC(=O)Cc3ccccc3)cc2)c1,-17%,-5%
O=C(Nc1ccccc1)/C(=C/c1cccc(Br)c1)NC(=O)c1ccco1,12%,34%[activator]
COc1cccc(C(=O)Nc2cc([N+](=O)[O-])ccc2N2CCN(C)CC2)c1,-6%,-1%
CCOC(=O)c1c(NC(=O)/C=C/c2ccc(OCC)c(OC)c2)sc2c1CCC2,.,-3%
O=C(NCC(O)COc1ccc([N+](=O)[O-])cc1)c1ccccc1 (stereo not given),-1%,-5%
COc1ccc(NC(=O)C2=C(C)Nc3ncnn3C2c2cccn2C)cc1 (stereo not given),.,-7%
CCC1CCc2sc(C(=O)NCC3CCCO3)cc2C1 (stereo not given),.,-4%
CCSc1nnc(NC(=O)CSc2nc3c(c(=O)n2CC)SC(C)C3)s1 (stereo not given),-3%,-1%
O=C(COc1ccc2ccc(=O)oc2c1)N1CC[C@@]2(O)CCCC[C@H]2C1,1%,2%
COc1ccc(N2CCN(c3nc4ccc(C(=O)c5ccccc5)cc4n4cnnc34)CC2)cc1,.,-11%
Cc1nc2ccc(C(=O)O)cc2nc1C,-4%,4%
Cc1c(NS(=O)(=O)c2cc(C(=O)NCc3ccco3)cc(Cl)c2Cl)c(=O)n(-c2ccccc2)n1C,-1%,-12%
CN1CCN(C(=O)Cn2ncc3c([nH]c4ccccc43)c2=O)CC1,-22%,-20%
NC(=O)COC(=O)/C=C/c1cccc(Br)c1,12%,-9%
CCOc1cc(C(=O)NC)cc(Br)c1OCc1ccccc1,18%,-3%
Cc1ccc(OCC2Cn3c(nc4c3c(=O)[nH]c(=O)n4C)O2)cc1C (stereo not given),3%,7%
CSc1nnc2n(-c3ccccc3)c(=O)c3c4c(sc3n12)CCC4,0%,-3%
O=C(CSc1nnc(-c2cccs2)n1CC1CCCO1)c1cc2ccccc2o1 (stereo not given),?,-4%
COc1ccc(NC(=O)N2CCN(S(C)(=O)=O)CC2)cc1OC,1%,-2%
O=C(NCc1ccccn1)c1ccc(Cn2cc(Br)cn2)o1,-3%,-15%
COc1ccc(NC(=O)CSc2nnc(Cc3cccn3C)n2CCc2ccccc2)c(OC)c1,22%,-11%

# More entries.
SMILES,N370S GC mod,GCN5L2 inh
COc1ccc(-n2c(=O)[nH]c3cc(C(=O)NCCc4ccc(OC)c(OC)c4)ccc3c2=O)c(OC)c1,9%,0%
N#Cc1cnc2sc3ccccc3n2c1=N,-6%,-9%[0.501 µM]
Cc1cc(C)cc(NC(=O)CSc2nnc(CNC(=O)c3ccco3)o2)c1,-4%,3%
COc1ccc2c(c1)C(=O)/C(=C/C=C/c1ccccc1)CC2,7%,-8%
O=C(Nc1ccccc1OC(F)F)C1CC(=O)N(Cc2ccccc2)C1 (stereo not given),0%,2%
CC(=O)N1CCc2cc(CNC(=O)c3ccccc3Br)ccc21,.,-4%
Cc1ccc(-c2csc3ncnc(-n4nc(C)cc4N)c23)cc1,1%,-4%
NNS(=O)(=O)c1ccc(N2CCCC2=O)c([N+](=O)[O-])c1,7%,-4%
Cc1ccc2c(CN(C)Cc3ccc(Cl)cc3)cc(=O)oc2c1,15%,-4%
COc1ccccc1C(=O)NCC(=O)OCCCOC(=O)CNC(=O)c1ccccc1OC,7%,-15%
CC1CN(S(=O)(=O)c2cccc(C(=O)OCc3cc(=O)oc4cc(O)ccc34)c2)CC(C)O1 (stereo not given),1%,-16%
CCOc1ccc(C2CC(c3ccc(OC)cc3)n3ncnc3N2)cc1 (stereo not given),1%,-3%

# Compound profiles, from the list above. Screens in order: N370S GC mod, GCN5L2 inh
# COc1ccc2c(c1)C(=O)/C(=C/C=C/c1ccccc1)CC2 is listed as 7%, -8%
# NNS(=O)(=O)c1ccc(N2CCCC2=O)c([N+](=O)[O-])c1 is listed as 7%, -4%
# CC(=O)N1CCc2cc(CNC(=O)c3ccccc3Br)ccc21 is listed as ., -4%
# COc1ccc(-n2c(=O)[nH]c3cc(C(=O)NCCc4ccc(OC)c(OC)c4)ccc3c2=O)c(OC)c1 is listed as 9%, 0%
# Cc1ccc2c(CN(C)Cc3ccc(Cl)cc3)cc(=O)oc2c1 is listed as 15%, -4%

# Source: PubChem BioAssay (National Center for Advancing Translational Sciences (NCATS))
